High-throughput results: PubChem, National Center for Advancing Translational Sciences (NCATS)
gsp agonist = activates gsp, the McCune-Albright syndrome mutation. Potency, µM (series often up to 76.9 µM), without a hit: top-dose activation (cAMP increase), hits mostly activators. 0.13% of 340,000 active. AID 624287. gsp mutant cells, cAMP HTRF, 30 min; control for the full effect not named in the record; active = well fitted activation curve with a large enough effect; inconclusive = small, poorly fitted or top-dose-only effect, or another doubt; inactive = no such curve, though single readings can be large or run the other way; cell line not stated here;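 further: phosphodiesterase inhibitor Ro 20-1724 added with compounds to block cAMP breakdown; potency means the concentration at half of the fitted maximal effect; nearly all actives have a fitted effect of over 60% in size; about a fifth of the inactives were tested at one dose only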
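Cells in DMEM/10% FBS with G418 were pretreated with compounds in DMSO plus […] (300 uM stock) for 30 min at 37C. cAMP was measured by HTRF (cAMP-d2 plus anti-cAMP antibody-K) after 30 min at room temperature.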
Menin-MLL FL inh = inhibitors of human menin-MLL interaction, wild-type MLL peptide | Fluorescence polarization, fluorescein-MLL peptide displacement from menin | FP activity change, % at 61.4 µM | 290,000 tested, under 10 active; inconclusive = falling polarisation curve, or a change in total fluorescence; inactive = total fluorescence flat and polarisation flat or rising; no compound was filed as active; the % refers to the polarisation; negative = inhibition;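 further: % of control where 0% means no effect; inhibitors lower the polarisation; unlabelled MLL peptide was the positive control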
ClpP mod = qHTS Assay for Activators of ClpP; 1.9% of 340,000 active; Potency, µM (series often up to 57.5 µM), for the others: at the highest dose activity change, negative = active; purified B. subtilis ClpP, FRET peptide cleavage, 20 min; ATP-dependent Clp protease proteolytic subunit (Bacillus subtilis (strain 168)), P80244; active = well fitted falling curve with a large enough effect; inconclusive = small, poorly fitted or top-dose-only effect; inactive = no such curve, though single readings can be large or run the other way; further: potency means the concentration at half of the fitted maximal effect; the source files actives as falling curves though it sought activators and does not explain the sign; nearly all actives have a fitted effect of over 65% in size; many hits overshoot -100%
Target sequence (P80244 whole entry, looked up): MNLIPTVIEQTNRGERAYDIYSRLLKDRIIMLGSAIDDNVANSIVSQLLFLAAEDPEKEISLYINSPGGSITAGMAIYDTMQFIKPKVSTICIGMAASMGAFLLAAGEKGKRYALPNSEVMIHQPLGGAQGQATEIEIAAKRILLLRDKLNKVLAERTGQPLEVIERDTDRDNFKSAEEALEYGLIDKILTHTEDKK
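ClpP 10 microg/mL final, pH 8 Tris/KCl buffer with BSA, glycerol, Tween-20; compound pinned in; FRET-FV substrate; RT 20 min; Ex320/Em430; ΔFRET vs ADEP 5.8 microM, DMSO, no enzyme.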
gsp antag = gsp mutant antagonism | gsp-mutant cells, cAMP HTRF, 30 min; control for the full effect not named in the record | Potency, µM (top dose mostly 76.9 µM), for the others: at the top dose activity change, negative = inhibition, most hits filed as inhibitors | 0.4% of 340,000 active; active = falling curve of any shape with a large fitted effect; inconclusive = falling curve, mostly with a smaller effect; inactive = flat or rising curve; cell line not stated here;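 further: intracellular cAMP measured with PDE inhibitor Ro 20-1724 present during compound exposure; potency means the concentration at half of the fitted maximal effect; on the % scale 0 is the no-effect control and ±100 the full control effect; nearly all actives have a fitted effect of over 65% in size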
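HTRF cAMP measurement after 30 min RT detection following 30 min, 37C compound treatment alongside […] (added as 300 uM solution) in G418-selected cells seeded at 2000/well and grown 16–24 h.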
Sfp inh = Sfp phosphopantetheinyl transferase inhibition | AID 1490 | 3.5% of 310,000 active | Q9F4F7 | Potency, µM, inactives show max response, negative = inhibition, hits mostly inhibitors | Biochemical Sfp PPTase activity, qHTS; active means well fitted inhibition curve with a large enough effect; inconclusive means small, poorly fitted or top-dose-only effect, or another doubt; inactive means no such curve, though single readings can be large or run the other way;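 further: the enzyme is Sfp with the accession as filed and its product quenches rhodamine fluorescence; potency means the concentration at half of the fitted maximal effect; 0% = enzyme reaction without inhibitor and -100% = no enzyme wells; top concentration of the series not given in the record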
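After 15 min at room temperature with compound, 15 nM Sfp received 5 uM rhodamine-CoA plus 12.5 uM BHQ-2-ybbR (50 mM Hepes pH 7.6, 10 mM MgCl2). Rate came from the fluorescence difference over 30 min, ex 525/em 598 nm.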
PINK1 expr mod = modulators of PINK1 expression; PINK1 immunofluorescence, high-content cytometry, 24 h; Potency, µM (doses to about 76.6 µM), inactives show at the top dose activation (PINK1 increase), hits mostly activators; 0.2% of 410,000 active; AID 624263; active = well fitted activation curve with a large enough effect; inconclusive = small, poorly fitted or top-dose-only effect; inactive = flat fitted curve, though single readings scatter; cell line not stated here;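 further: potency means the concentration at half of the fitted maximal effect; % of control where 0% means no effect; nearly all actives have a fitted effect of over 65% in size; a mitochondrial uncoupler was the plate control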
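Measures PINK1 amount and localization on or inside mitochondria by immunofluorescence. Stable cells get compounds at 5 concentrations for 24 hours before fixation and staining; CCCP controls included.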
D2 agonist = activates the human D2 dopamine receptor; P14416; DiscoveRx PathHunter D2 beta-arrestin, luminescence, 90 min; 100% = 57 uM dopamine signal; activation, % (concentration not given with the values); 0.084% of 360,000 active; AID 624465; in the data active = activation above about 40%; inconclusive = about 15% to 40%; inactive = below about 15%; further: compound concentration not given in the record; the text of the record calls up to 30% inactive
Target sequence (P14416 whole entry, looked up): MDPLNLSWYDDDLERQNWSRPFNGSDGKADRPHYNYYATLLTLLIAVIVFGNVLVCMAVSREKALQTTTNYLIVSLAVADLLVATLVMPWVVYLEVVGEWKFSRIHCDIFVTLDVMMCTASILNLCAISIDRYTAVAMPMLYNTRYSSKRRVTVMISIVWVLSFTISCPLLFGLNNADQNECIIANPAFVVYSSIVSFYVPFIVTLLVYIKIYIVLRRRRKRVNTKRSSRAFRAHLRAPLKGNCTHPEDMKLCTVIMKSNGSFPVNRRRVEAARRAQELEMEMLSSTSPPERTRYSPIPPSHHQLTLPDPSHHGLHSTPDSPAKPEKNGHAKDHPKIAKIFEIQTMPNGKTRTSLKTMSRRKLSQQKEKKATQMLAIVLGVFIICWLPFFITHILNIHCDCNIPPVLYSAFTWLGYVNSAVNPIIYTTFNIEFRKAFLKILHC
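Agonist mode: compounds alone added to overnight-plated D2 PathHunter cells for 90 min at 37 C, with 57 uM final dopamine (EC100) defining full response. Beta-arrestin recruitment detected by chemiluminescent reagent, read after 1 h at ambient temperature.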
An asterisk follows results filed as active; ? = inconclusive; nt = not tested or not shown; & = joins results of further samples; [ ] = remark or other dose.

Structure,gsp agonist,Menin-MLL FL inh,ClpP mod,gsp antag,Sfp inh,PINK1 expr mod,D2 agonist
Cc1ccc(NC(=O)CCNC(=O)Nc2ccccc2)cc1S(=O)(=O)N(C)C,14%,nt,-1.3%,7%,nt,1.4%,-3.3
COC(=O)c1cc(NC(=O)c2c(F)c(F)c(F)c(F)c2F)cc(C(=O)OC)c1,-53%[inhibitor],3.6,-6.8%,-1%,-3%,-0.3%,0.9
C(=N\Nc1ccccc1)/c1ccc(N2CCOCC2)cc1,8%,-1.1,-5.4%,-6%,-2%,-0.1%[38.3 µM],-2.2
CCOc1ccc(Cc2c(Cl)nc(N)nc2Cl)cc1,?,-0.3,-5.7%,11%,14%,3.3%,-2.9
CCOc1cnn(-c2ccccc2)c(=O)c1Cl,-54%[inhibitor],-3.2,-2.4%,-19%,6%,23%,-11
CN(CCN1CCOCC1)C(=O)CC1C(=O)NCCN1Cc1ccccc1C(F)(F)F (centres undefined),-15%,nt,-8.7%,15%,10%,0.3%,1.9
CN1CCN(CCCNC(=O)CCc2nnc3n(Cc4ccccc4Cl)c(=O)c4ccccc4n23)CC1,-18%,nt,-19%,9%,-2%,4.1%,4.8
Cc1ccccc1-c1nnn(C/C(N)=N/O)n1,-38%[inhibitor],5.7,-2.0%,-9%,2%,1.2%,-2.8
Cc1ccc(-c2nnn(CC(=O)N(Cc3cccs3)C(C(=O)NC(C)(C)C)c3ccc(C)o3)n2)o1 (centres undefined),-50%[inhibitor],7.1,-3.0%,-1%,-26%,-0.6%[38.3 µM],0.2
NC(N)=NCCCc1cn(CC(=O)N2CCNCC2)nn1,nt,-2.5,-2.2%,-2%,5%,-0.3%,-3.1
O=C1CCC(C(=O)N2CCN(c3ccc(F)cc3)CC2)CN1CC1CCCCC1 (centres undefined),4%,1.8,2.3%,9%,11%,1.4%,-3.7
CC(=O)NC1C(=O)N(CCN2CCOCC2)c2ccc(C)cc21 (centres undefined),25%,nt,-7.5%,6%,79µM*,0.1%,-8.7
CC(C)(C)NC(=O)C12CC3CC(CC(Cl)(C3)C1)C2,-27%,1.6,-1.5%,6%,28%,-1.9%,-2.1
Cc1ccc(S(=O)(=O)N(C)C)cc1NC(=O)COC(=O)C1=COCCO1,5%,nt,1.6%,-2%,nt,1.7%,5.4
NNC(=O)/C(=C\c1ccco1)NC(=O)c1ccco1,12%,2.9,-2.9%,2%,7%,14%,4.1
Cc1ccc(C(=O)COc2nc(C)nc3ccccc23)cc1,8%[15.4 µM],-0.6,nt,8%,5%,2.2%,0.6
COc1cc(NC(=O)C2COc3ccccc3O2)c(OC)cc1Cl (centres undefined),?,-1.3,1.3%,-26%,?,14%,13
CCC(=O)N/N=C(\C)CC(=O)Nc1ccc2c(c1)OCCO2,0%[15.4 µM],-7.8,nt,-3%,4%,1.4%,-5.8
CC(=O)Nc1ccc(S(=O)(=O)NCC(=O)OCC(=O)NCc2ccco2)cc1,-42%,nt,1.8%,3%,nt,1.5%,-7.3
Cc1csc(NC(=O)CCS(=O)(=O)c2ccc(Br)cc2)n1,-30%,-0.9,-1.8%,10%,14%,2.8%,-3.8
O=C(c1cc2ccccc2oc1=O)N(Cc1ccccc1F)C1CCS(=O)(=O)C1 (centres undefined),?,3.9,-14%,-3%,8%,-1.7%,-0.6
Cc1ccc2cc(C3CC(c4ccco4)=NN3S(C)(=O)=O)c(Cl)nc2c1 (centres undefined),6%[15.4 µM],9.1,nt,-7%,?,0.0%,-3.0
COc1ccc(N(Cc2ccccc2)S(=O)(=O)c2cc(C(=O)O)ccc2Cl)cc1,-29%,-1.1,nt,-4%,12%,-0.6%,-3.3
CCOc1ccc(CN(C)C(=O)c2cccc(S(=O)(=O)Nc3ccccc3OC)c2)cc1OC,-34%[inhibitor],nt,-0.6%,nt,nt,0.6%,-0.8
Cc1ccc(C(=O)N(CCc2ccccc2)Cc2ccccc2)cc1S(=O)(=O)N1CCCCC1,18%[15.4 µM],nt,nt,?,nt,4.1%,-2.7
COc1cccc(NC(=O)CCSc2ccc3ccccc3n2)c1,0%,-0.5,2.2%,10%,0%,0.1%,-3.6
O=C1CCc2cc(S(=O)(=O)NCc3ccccc3)cc3c2N1CC3,-22%,nt,1.8%&-1.3%,19%,nt,13%&0.3%,-4.0
O=S(=O)(Nc1nc2c(s1)CCCC2)c1ccc(Br)cc1,0%,3.4,2.6%,-12%,9%,-2.6%,3.3
CC1(CCBr)C(=O)N(c2ccccc2)c2ccccc21 (centres undefined),10%,-3.8,-2.1%,3%,5%,1.9%,-1.6
NC(=O)c1ccc(OCC(=O)N2CCNC2=O)cc1,-19%,nt,nt,-3%,nt,1.0%,6.0
COC(=O)C1=C(C)N(CCc2ccc(OC)c(OC)c2)C(=O)/C1=C\c1ccc(O)cc1,-3%,-0.4,0.7%,?,-11%,2.1%,-2.2
CCC1CCCCN1C(=O)CSc1nc2c(cnn2-c2ccc(C)cc2)c(=O)[nH]1 (centres undefined),21%,0.2,-0.1%,5%,2%,3.0%,-4.2

One compound at a time (already shown). Values in the order: gsp agonist | Menin-MLL FL inh | ClpP mod | gsp antag | Sfp inh | PINK1 expr mod | D2 agonist
Cc1ccc(C(=O)N(CCc2ccccc2)Cc2ccccc2)cc1S(=O)(=O)N1CCCCC1 across the screens: 18%[15.4 µM] | nt | nt | ? | nt | 4.1% | -2.7
CCC1CCCCN1C(=O)CSc1nc2c(cnn2-c2ccc(C)cc2)c(=O)[nH]1 (centres undefined) across the screens: 21% | 0.2 | -0.1% | 5% | 2% | 3.0% | -4.2
CC1(CCBr)C(=O)N(c2ccccc2)c2ccccc21 (centres undefined) across the screens: 10% | -3.8 | -2.1% | 3% | 5% | 1.9% | -1.6
O=C1CCc2cc(S(=O)(=O)NCc3ccccc3)cc3c2N1CC3 across the screens: -22% | nt | 1.8%&-1.3% | 19% | nt | 13%&0.3% | -4.0

The list continues.
Structure,gsp agonist,Menin-MLL FL inh,ClpP mod,gsp antag,Sfp inh,PINK1 expr mod,D2 agonist
COc1ccc(CNC(=O)C(C#N)c2nc3ccccc3nc2N2CCCC2)cc1 (centres undefined),0%,?,-2.3%,-5%,0%,?,-1.7
C1CNCCOCCNCCN1,-5%,1.8,-0.6%,7%,-9%,-0.2%,-4.4
COc1ccc(-n2nc(C(=O)NCC(=O)NCC3CCCO3)c3ccccc3c2=O)cc1 (centres undefined),?,-2.0,-2.0%,19%,13%,-2.4%,0.8
O=C(COC(=O)c1cc(-c2cccs2)nn1-c1ccccc1)Nc1ccc(F)c([N+](=O)[O-])c1,2%,-1.1,-2.3%,?,18%,-0.5%,-3.6
O=C(CN1C(=O)NC2(CCCc3ccccc32)C1=O)Nc1cc(F)ccc1F (centres undefined),-38%[inhibitor],nt,0.5%,-7%,nt,2.1%,-4.1
COc1ccc(-c2nc(CSCC(=O)NCc3ccc4c(c3)OCO4)c(C)o2)cc1OC,-33%,12,-15%,-10%,-10%,0.1%,-1.6
O=C(CSc1ccc(-c2ccc(-n3cccn3)cc2)nn1)Nc1ccccc1F,32%,nt,16µM*,6%,nt,6.8%,1.2
Cc1cc(C2C(C#N)=C(N)OC3=C2C(=O)CC(C)(C)C3)c(C)s1 (centres undefined),23%,-1.3,1.0%,-5%,-1%,1.5%,0.3
O=C(N/N=C/c1ccc(O)cc1O)c1ccc(NC(=O)C2CCCCC2)cc1,-2%,nt,0.3%,?,-4%,16%,2.4
Nc1nonc1-n1nnc(C(=O)N/N=C/c2cccc(F)c2)c1-c1ccc2c(c1)OCO2,-18%,nt,?,?,2%,4.3%,-2.8
COC(=O)c1ccc(NS(=O)(=O)c2ccc3c(c2)oc(=O)n3C)cc1,?,-0.5,-1.5%,-8%,0%,1.0%,-4.3
Cc1cc(C)cc(NC(=O)CCNS(=O)(=O)c2ccc3c(c2)oc(=O)n3C)c1,0%,2.3,0.1%,-1%,11%,-3.3%[38.3 µM],-3.4
O=C(COC(=O)c1cccc(S(=O)(=O)N2CCN(c3ccc(F)cc3)CC2)c1)NCC1CCCO1 (centres undefined),0%[15.4 µM],4.1,-1.8%,0%,21%,-0.1%,-3.7
COc1ccc(CNC(=S)Nc2ccccc2F)cc1,-27%,-2.9,-3.0%,-4%,-2%,1.1%,-3.7
O/C=c1\ccc2cccc3nc(C(F)(F)F)nc1c23,-2%[15.4 µM],?,-4.8%,-4%,-24%,8.8%,4.4
Cc1cc(C)c(C(=O)CN2C(=O)C(=O)N(C3CCCC3)C2=O)cc1C,0%,nt,-0.5%,-5%,nt,1.8%,0.4
CCOC(=O)C1CCCN(C(=O)c2ccc3ncsc3c2)C1 (centres undefined),12%,nt,-2.9%,8%,nt,-1.7%,1.2
COc1ccccc1C(=O)Nc1ccc(-c2nnn(CC(=O)NCc3ccco3)n2)cc1,?,-2.8,-5.6%,-1%,18%,4.0%,-2.0
COc1ccc(NC(=O)CN2C(=O)COc3ccc(S(=O)(=O)N4CCOCC4)cc32)cc1,?,-1.1,0.2%&1.3%,4%,11%,0.4%&-0.9%,-5.3
COc1ccc(NC(=O)c2ccc(CN3CCc4ccccc4C3)cc2)cc1OC,24%,1.2,1.3%,1%,-3%,5.4%,-3.1
N#Cc1sc(NCc2ccccc2)nc1Cl,3%[15.4 µM],-2.4,nt,1%,17%,3.0%,-1.2
